# RN4220 kill: S. aureus RN4220 growth inhibition. OD600, 16 h. inhibition, % (test concentration not listed). 330,000 compounds, 0.33% hits. AID 1259311;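 active means z-score of -3 or lower and OD600 up to 0.18 on both plates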;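 further: plate controls were untreated cells for no effect and reference antibiotic for full effect; stock transfer was 100 nL into about 80 µL; one replicate is shown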
# Sa ugtP lethal: compounds lethal to S. aureus RN4220 ugtP deletion mutant; AID 1259309; 330,000 compounds, 0.54% hits; OD600 growth, 16 h; some inactives read as strong as hits; growth inhibition, % (test concentration not listed);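 active means z-score under -3 and OD600 up to 0.15 on both plates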;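 further: plate controls were untreated wells for no effect and antibiotic for full effect; wells of about 80 µL received 100 nL stock; the first replicate is given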
# Mtb hypoxia rep: inhibitors of hypoxia-regulated fluorescent reporter in Mycobacterium tuberculosis; M. tuberculosis hypoxia-regulated fluorescent reporter, fluorescence; fluorescence inhibition, % (no concentration beside the values); 300,000 compounds, 0.1% hits; AID 1159583;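 active means 35 to 45% if threefold the growth effect, above 45% if 1.5-fold the growth effect; inactive means the rest, general growth blockers included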;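 further: wells of about 50 µL received 100 nL stock; 0% = vehicle wells and 100% = reference inhibitor wells; whole bacteria with a GFP reporter of the hypoxia response; strong numbers were not always called active; many hits fall short of the cut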
# BJeLR viability: kills HRASV12-expressing BJeLR cells; BJeLR (HRASV12) viability, CellTiter-Glo ATP luminescence, 48 h; reference of the scale not given here; inhibition, % (test concentration not listed); 300,000 compounds, 0.17% hits;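 active means replicate mean above 50%; inconclusive means above 50% but judged a plate artefact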;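 further: 50 nL library stock added to about 25 µL; numbers are from one replicate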
# Bead autofluor: flagged as autofluorescent in microsphere protease counterscreen | compound autofluorescence counterscreen, microsphere flow cytometry; stronger effect = higher value | fluorescence intensity (test concentration not listed) | 360,000 compounds, 3.1% hits | AID 624483;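 active means at least 3 SD above the mean of all compounds, about 16000 in these data; inconclusive means too few beads counted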;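 further: 100 nL of 1 mM stock went into each well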
# PrP UTR inh: inhibition of PrP 5' UTR reporter expression; cell-based PrP 5' UTR mRNA reporter, plate reader; inhibition, % (test concentration not listed); 340,000 compounds, 0.35% hits;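 active means every replicate at 50% or more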;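 further: 0 = median of the neutral control wells; tested in H4 reporter cells; numbers are from one replicate; inactives centre near -14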
# Mtb hypoxia rep growth: further read-out of Mtb hypoxia rep, marked with its call; growth inhibition, %; measured here: M. tuberculosis growth (absorbance);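 0% = vehicle and 100% = reference antibiotic; read after six days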
# Starred values were filed as active, the others as inactive; ? = inconclusive; · = no result given.
SMILES	RN4220 kill	Sa ugtP lethal	Mtb hypoxia rep	Mtb hypoxia rep growth	BJeLR viability	Bead autofluor	PrP UTR inh
O=C(COc1cccc2ccccc12)NNC(=O)C1CCCO1 (centres undefined)	0.6	4	1	9	-7	11231	-1
CCc1nnc(NC(=O)c2ccc(-c3ccc(F)cc3)o2)s1	-0.7	0	-7	-2	-8	4362	1
CCNc1nc(NCC)nc(SCCOC(=O)Nc2ccc(Cl)cc2Cl)n1	·	·	·	·	0	2561	15
CCOC(=O)c1sc2ncnc(N3CCN(CC)CC3)c2c1C	11	16	4	6	-4	4561	-3
Cc1c(Cl)cccc1NS(=O)(=O)c1ccc(-c2ccc(=O)[nH]n2)o1	2.1	5	-3	-1	5	4233	-5
Cc1ccc(S(=O)(=O)CCC(=O)OCc2cc(C)ccc2C)cc1	1.6	14	9	3	-6	6279	-21
CC(C)N1CC(C(=O)Nc2ccc(Cl)c([N+](=O)[O-])c2)CC1=O (centres undefined)	1.8	2	2	-1	3	3699	-25
Cc1ccc(NC(=O)CO/N=C/c2ccc(N(C)C)cc2)cc1	·	·	·	·	-4	7059	-18
COc1cc(C(=O)OC2CC3CCC2(C)C3(C)C)ccc1OC(C)=O (centres undefined)	14	21	·	·	-7	5073	-11
CC(C)(C)c1cc(-c2nc(N)nc(N)n2)c(O)c(C(C)(C)C)c1	30	83	10	12	·	3324	-11
Cc1ccc(NC(=O)C2CCCN(c3ncnc4c3nc3n4CCCCC3)C2)cc1Cl (centres undefined)	-6.8	2	-1	8	3	5683	-10
COc1ccc(/C=N/N=C2/NC(=O)C(CC(=O)NC(N)=O)S2)cc1 (centres undefined)	·	·	·	·	9	4204	-30
Cc1ccccc1Cn1nc(C)c(NC(=O)/C=C/c2cnn(C)c2)c1C	3.7	5	6	-1	10	2094	-2
OC(CNc1ccccc1)COc1ccc(OCC(O)CNc2ccccc2)cc1 (centres undefined)	-7.4	-20	·	·	6	2748	-7
COC(=O)c1sc(NC(=O)C2CCCO2)c(C(=O)OC)c1C (centres undefined)	3.9	-2	·	·	5	3312	-18
CC(=O)c1c(C)[nH]c(C(=O)Nc2ccc(C)cc2Br)c1C	4.9	3	-7	2	-11	5259	-67
CCOC(=O)N1CCN(c2c(NCCN3CCN(c4ccccc4F)CC3)c(=O)c2=O)CC1	2.1	4	11	8	-8	5406	-19
Cc1ccc(S(=O)(=O)N2CCOCC2)cc1NC(=O)CSc1nc(N)cc(=O)[nH]1	1.9	-3	2	3	4	3914	-6
CC(=O)Nc1ccc2c(c1)C(C)(C)C(C)N2C (centres undefined)	-1.0	5	·	·	-2	·	·
Cc1ccc(S(=O)(=O)N2CCC(=O)N(CCOC(=O)Nc3cccc(Cl)c3)CC2)cc1	12	11	13	0	-8	2969	-16

# Single records, from the list above.
# Profile of Cc1ccc(NC(=O)C2CCCN(c3ncnc4c3nc3n4CCCCC3)C2)cc1Cl (centres undefined) → RN4220 kill = -6.8; Sa ugtP lethal = 2; Mtb hypoxia rep = -1; Mtb hypoxia rep growth = 8; BJeLR viability = 3; Bead autofluor = 5683; PrP UTR inh = -10
# Profile of COC(=O)c1sc(NC(=O)C2CCCO2)c(C(=O)OC)c1C (centres undefined) → RN4220 kill = 3.9; Sa ugtP lethal = -2; Mtb hypoxia rep = ·; Mtb hypoxia rep growth = ·; BJeLR viability = 5; Bead autofluor = 3312; PrP UTR inh = -18

# (listing goes on)
SMILES	RN4220 kill	Sa ugtP lethal	Mtb hypoxia rep	Mtb hypoxia rep growth	BJeLR viability	Bead autofluor	PrP UTR inh
CCC(C)(C(=O)Nc1ccc2c(c1)OCCO2)N(C(C)=O)c1ccc(C(N)=O)cc1 (centres undefined)	-0.5	-3	0	6	6	10010	7
O=C(Cc1ccc(Br)cc1)N/N=C/c1ccc(-c2cccc(C(=O)O)c2)o1	·	·	·	·	-2	4958	-21
CC1=CC2=NC(=O)/C(=C\c3cccn3CCOc3cc(C)ccc3C)C(=N)N2O1	-4.2	-32	7	8	4	6692	-25
COC(=O)c1ccc2c(=O)n(CCO)c(=S)[nH]c2c1	2.0	7	-4	3	-6	8136	-5
Cc1cc(C(F)(F)F)nn1CC(=O)NNC(=S)NCC(C)C	4.4	1	-1	3	0	10377	·
CC(=O)Nc1ccc(NC(=O)CSc2ccc(-c3cccs3)nn2)cc1	-7.0	2	2	-4	3	4632	-29
CCCCNS(=O)(=O)c1ccc2c(c1)oc(=O)n2CC(=O)OCC	2.3	5	11	7	-2	6016	-26
CCc1ccccc1OCC(=O)Nc1ccc(C)c(S(=O)(=O)N2CCCCCC2)c1	3.7	-14	-8	-11	·	6036	-9
Cc1[nH]c2ccccc2c1Cc1nnc(SCCC#N)o1	3.1	5	1	12	1	3881	-16
COC(=O)C(Cc1ccc(O)cc1)NC(=O)C1CCN(S(=O)(=O)c2ccc(C)cc2)CC1 (centres undefined)	-0.6	14	6	5	7	5363	-11
COc1ccc(S(=O)(=O)NCCCCCC(=O)NCCCN2CCOCC2)cc1	-2.1	-3	-5	-1	-3	20933*	-6
Brc1ccccc1C=NNc1ccccn1	-5.7	1	13	0	·	·	·
NCCN=C1NS(=O)(=O)c2ccccc21	2.4	9	15	-1	1	5785	-11
NC(=O)CS(=O)(=O)c1nc2ccccc2n1CC(=O)N1CCCCC1	4.8	4	21	2	-3	5916	-9
CCOCC(O)CNC(=O)c1ccc2nc(Cc3ccc(OC)c(OC)c3)oc2c1 (centres undefined)	1.1	4	-2	2	-3	2884	-17
O=c1cc2c(nn1Cc1c(Cl)cccc1Cl)-c1ccccc1CC2	-2.8	6	·	·	-11	3726	-36
CC(C)CNS(=O)(=O)c1ccc(CCC(=O)NCCc2ccccc2)cc1	4.5	7	13	12	-3	3048	-23
COC(=O)c1c(C(=O)OC)c2n(c1C)CCS2	2.1	5	-2	12	2	4452	-17
O=C(Oc1ccc(-n2cnnn2)cc1)c1ccco1	9.1	2	5	0	-3	3950	-16
O=C(NCCC(=O)N1CCN(c2ncccn2)CC1)c1ccccc1Cl	1.8	1	·	·	7	2324	-14

# Individual results from above.
# Under Mtb hypoxia rep, `NC(=O)CS(=O)(=O)c1nc2ccccc2n1CC(=O)N1CCCCC1` is entered as 21
# Under Mtb hypoxia rep, `CCOCC(O)CNC(=O)c1ccc2nc(Cc3ccc(OC)c(OC)c3)oc2c1` (centres undefined) is entered as -2
# Under Sa ugtP lethal, `Brc1ccccc1C=NNc1ccccn1` is entered as 1
# Under Sa ugtP lethal, `Cc1ccc(S(=O)(=O)N2CCOCC2)cc1NC(=O)CSc1nc(N)cc(=O)[nH]1` is entered as -3

# The listing continues:
SMILES	RN4220 kill	Sa ugtP lethal	Mtb hypoxia rep	Mtb hypoxia rep growth	BJeLR viability	Bead autofluor	PrP UTR inh
N#Cc1cc(N2CCCCC2)c([N+](=O)[O-])cc1C#N	8.1	6	-5	7	-2	2018	-9
OCCN1CCN(Cc2cc(Cl)c3cccnc3c2O)CC1	5.3	6	1	-1	3	11162	-14
COC(=O)c1ccccc1NC(=O)C1CCCN(S(C)(=O)=O)C1 (centres undefined)	2.6	-1	5	12	0	10464	-16
Cc1cc(-n2nc(C)cc2C)nc(NS(=O)(=O)c2ccccc2)n1	1.6	-5	·	·	·	4294	1
COc1ccc(C(CNC(=O)c2cccc(S(=O)(=O)N3CCCc4ccccc43)c2)N(C)C)cc1 (centres undefined)	-2.9	5	10	9	·	3116	1
C(#CCN1CCC(Cc2ccccc2)CC1)COCCOCc1ccccc1	4.3	18	13	-3	-7	2601	-9
Nc1nc(-c2cccs2)c(-c2cccs2)s1	4.3	33	-1	-6	-1	2877	-9
CN(C(=O)COC(=O)/C=C/c1ccc(C(F)(F)F)cc1)c1c(N)n(Cc2ccccc2)c(=O)[nH]c1=O	-2.6	0	-7	-9	-3	5139	-8
CSCc1nnc2n1-c1ccc(Cl)cc1C(c1ccccc1)=NC2	·	·	·	·	11	7114	-7
S=c1[nH]nc(-c2ccco2)n1/N=C/c1cccs1	·	·	·	·	5	2623	-19
CCC1CN2CCC1CC2C(O)c1ccnc2ccc(OC)cc12 (centres undefined)	0.7	2	-6	-6	·	·	·
COc1ccccc1NC(=O)Cc1c(F)cccc1Cl	4.0	4	11	1	-21	2515	-13
CCN(c1cccc(C(F)(F)F)c1)S(=O)(=O)c1ccc2c(c1)CCN2C(=O)C1CC1	20	9	3	6	-3	3167	-14
CC(C)(C)c1nnc(NC(=O)CN2C(=O)C3C4C=CC(C4)C3C2=O)s1 (centres undefined)	1.4	12	6	8	5	3701	0
Cc1cccc(OCC(=O)NCC(=O)N/N=C/c2c(C)[nH]c3ccccc23)c1	·	·	·	·	-2	4731	-21
CN(C)CCN1C(=O)c2oc3ccc(F)cc3c(=O)c2C1c1ccncc1 (centres undefined)	2.8	5	3	4	12	5575	-28
Cc1ccc(OCC(O)CN2CCOCC2)cc1 (centres undefined)	0.3	3	7	1	-16	3832	-20
CC(C)c1ccc(NC(=S)NCc2ccc3c(c2)OCO3)cc1	6.6	0	11	2	4	4393	-7
COc1ccc(OC)c(C(=O)COC(=O)c2[nH]c(C)c(C(C)=O)c2C)c1	9.0	-8	13	2	·	6588	-24
COc1ccc(-c2noc(N3CCCC(C(=O)Nc4cc(F)ccc4F)C3)n2)cc1 (centres undefined)	2.8	-2	2	5	-3	5522	-29
CS(=O)(=O)N(Cc1ccccc1)c1ccc(C(=O)NCc2cccnc2)cc1	8.6	-6	9	6	-3	4213	-7
O=C1CC(C(=O)Nc2ccccc2)C2(CCCCC2)O1 (centres undefined)	6.2	-2	·	·	-6	2392	-28
O=C1/C(=C\c2ccsc2)NC(=S)N1c1ccccc1	-1.7	11	-10	4	-3	5561	-33
CSCCC(NC(=O)c1ccccc1Br)C(=O)N1CCCC(C(F)(F)F)C1 (centres undefined)	0.8	3	7	-7	-3	6330	-39
COC(=O)C(CC(=O)c1ccc(Cl)cc1)c1ccc(C)cc1 (centres undefined)	-4.4	16	·	·	13	2079	-10
Cc1cc2c(cc1S(=O)(=O)N1CCN(c3cccc(C)c3C)CC1)OCC(=O)N2	-8.2	-3	9	7	14	5430	-8
COc1ccc(-n2c(C)cc(C(=O)CSc3ccc(NC(C)=O)cc3)c2C)cc1	0.5	-6	3	0	3	2006	-22
CCC(=O)Nc1nnc(CSCc2ccccc2)s1	1.1	-6	·	·	6	2449	-14
Cc1cc(Cl)ccc1NC(=O)C(=O)NN=Cc1ccc2c(c1)OCO2	1.9	3	-1	1	·	·	·
Cc1ccc(NC(=O)CSc2nnc3c(n2)[nH]c2ccccc23)cc1	-2.6	2	10	2	-1	3731	-28
O=C(NC1CCCC1)C(c1cccnc1)N(Cc1ccc(F)cc1)C(=O)c1csnn1 (centres undefined)	2.0	-3	6	-1	-4	3562	-26
COc1ccc(-c2nc(CS(=O)CC(=O)N3CCC4(CC3)OCCO4)c(C)o2)cc1 (centres undefined)	4.0	1	16	8	-2	?	-28
Cc1ccc2c(c1)N(C(=O)CCC(=O)NCCN1CCOCC1)CCO2	-4.5	-6	-6	0	-6	5843	-9
COc1cccc(N(CC(=O)NCc2cccnc2)S(C)(=O)=O)c1	-0.1	-2	15	7	-1	4357	-7
CC(=O)c1ccc(NC(=S)N2CCN(C(=S)Nc3ccc(C(C)=O)cc3)C(C)C2)cc1 (centres undefined)	-0.2	0	-5	9	-14	4434	2
O=C(COc1cc(F)ccc1[N+](=O)[O-])NCCN1C(=O)CSC1=O	4.5	6	8	4	·	3062	-15
COC(=O)C1=C(C)N(Cc2ccccc2)C(=O)N[C@H]1c1cccc(C(F)(F)F)c1	·	·	·	·	0	3366	-7
COCCNC(=S)N(CCc1c(C)[nH]c2ccccc12)Cc1cccnc1	-2.0	16	13	8	-12	3623	-10
Cc1ccc2nc(SCC(=O)NC3CCS(=O)(=O)C3)[nH]c2c1 (centres undefined)	2.5	3	·	·	·	4065	-16
CSc1ccc(/C=C(\C(=O)O)c2ccc(S(=O)(=O)N3CCCCC3)s2)cc1	8.7	-19	-4	-3	-6	2131	-10
CCOC(=O)c1c(C)[nH]c(C)c1S(=O)(=O)N(C)CC(=O)Nc1ccc(C)cn1	2.7	1	-5	1	1	5502	-10
O=C(CNC(=O)c1ccccc1Br)NCCSc1ccc(Br)cc1	-1.2	9	12	8	6	6749	-1
O=C(Nc1ccc(NC(=S)NC(=O)c2cccs2)cc1)c1ccco1	62	5	13	8	-2	5511	-12
COc1ccc(N=C2SC(C(=O)Nc3ccc(C(=O)O)cc3)CC(=O)N2Cc2cccs2)cc1 (centres undefined)	-0.4	7	-4	-10	-8	4016	-4
